CSC inhib = blocks cancer stem cells; inhibition, % at 7.5 µM; actives 1.1% (n = 300,000); cancer stem cell-like cells viability, luminescence;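 active = mean at 75% or more and at least half the replicates too; inconclusive = mean and replicates disagree; tested in HMLE shEcad cells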;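 note: 0% = median of negative and 100% = median of positive control wells; the first replicate is given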
MT1-MMP act inh = inhibitors of human MT1-MMP activation. AID 651647. HT1080 RFP-PRO-GFP cells, GFP/RFP ratio fluorescence, overnight; percent of plate control window, DMSO zero. GFP/RFP ratio change, % at 20 µM. actives 0.061% (n = 360,000);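 active = GFP/RFP ratio change of at least 30% with cell ATP level not reduced by more than half and red fluorescence within 50% of control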; note: strong numbers were not always called active
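Read-out: GFP/RFP fluorescence ratio; Test system: RFP-PRO-GFP reporter HT1080 cells; Compound dosing: single-point 20 µM compound, 1% DMSO; Times: overnight compound exposure at 37 °C.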
eIF4H FP inh = inhibitors of RNA binding by human eIF4H. Q15056. eIF4H fluorescence polarization binding assay. inhibition, % at 35 µM. actives 0.94% (n = 290,000). AID 2012;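 active = 50% or more with normal probe brightness, or confirmed in later tests; inconclusive = above 50% with abnormal brightness, or retests that disagree; inactive = below 50% or failed in later tests; about a fifth of its hits are not listed in these tables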;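 note: calls also rest on retests at 20 µM and on dose response follow-up; 0% = protein and probe with vehicle and 100% = probe without protein; strong numbers were not always called active; many hits fall short of the cut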
Env fusion inh = blocks HIV Env-driven cell-cell fusion; HeLa-JRFL Env/CEM21 cell fusion, luciferase; AID 651610; actives 1.1% (n = 360,000); inhibition, % at 12.3 µM;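 active = mean replicate inhibition score of at least 50 and every replicate individually at or above 50; inconclusive = only one of the two criteria met; inactive = mean below 50 and not all replicates reaching 50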;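 note: 0% = plate neutral controls and 100% = maraviroc near 300 nM; one replicate is shown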
Yeast UUG start = yeast start codon fidelity modulation | S. cerevisiae UUG-firefly luciferase reporter, luminescence/redox ratio | activity score, % at 18.7 µM | actives 0.13% (n = 350,000) | AID 602363;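 active = replicate mean at a twofold rise or more, about +100% in these data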;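 note: firefly luciferase made from a UUG start codon reports start codon fidelity; reporter light over untreated wells divided by growth signal over untreated wells; some hits fall short of that in this replicate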
Rce1 inhib = blocks yeast Ras-converting enzyme; Q03530; yeast membranes, quenched prenylated peptide cleavage fluorescence; calls only; actives 0.27% (n = 290,000);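 active = fall in fluorescence gain of 50% or more versus controls, with final raw signal at or below 3038400; inconclusive = same 50% fall but final raw signal above 3038400; inactive = fall in fluorescence gain under 50%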;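 note: plate controls were neutral control wells for no effect and wells lacking membranes for full effect; tested at 10 µM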
Target sequence (Q03530 whole entry, looked up): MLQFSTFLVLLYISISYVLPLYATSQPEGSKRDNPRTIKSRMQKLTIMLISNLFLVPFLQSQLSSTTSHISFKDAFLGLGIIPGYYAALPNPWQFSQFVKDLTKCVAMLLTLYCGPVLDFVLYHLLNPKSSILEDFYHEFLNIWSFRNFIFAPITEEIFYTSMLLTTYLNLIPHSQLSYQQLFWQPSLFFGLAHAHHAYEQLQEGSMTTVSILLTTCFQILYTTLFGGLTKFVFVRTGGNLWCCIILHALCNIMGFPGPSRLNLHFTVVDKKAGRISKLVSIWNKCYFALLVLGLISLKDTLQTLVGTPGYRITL
PABP FP inh = PABP-poly(A) binding inhibition. PABP-poly(A) RNA binding, fluorescence polarization. inhibition, % at 35 µM. P11940. actives 1% (n = 290,000);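 active = 50% or more with normal probe brightness, or confirmed in later tests; inconclusive = above 50% with abnormal brightness, or retests that disagree; inactive = below 50% or failed in later tests; about a fifth of its hits are not listed in these tables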;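 note: calls also rest on retests at 20 µM and on dose response follow-up; controls were probe without protein and protein plus probe with vehicle; some compounds called inactive have numbers as strong as hits; many hits fall short of the cut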
eIF4H FP inh retest = second read-out of eIF4H FP inh, no call of its own (marks repeat the call); inhibition, %; compound at 20 µM; confirmation average;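 mean of two retest wells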
PABP FP inh retest = recorded beside PABP FP inh, whose call it bears; inhibition, %; compound at 20 µM; confirmation repeats;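 mean of two retest wells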
MT1-MMP act inh RFP = second read-out of MT1-MMP act inh, no call of its own (marks repeat the call); RFP signal change, %; measured here: RFP expression control read;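 0 = vehicle wells; hits needed this value within 50% of zero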
An asterisk follows results filed as active; i = inactive; ? = inconclusive; · = not tested or not shown; + = active, no number. Not all compounds are listed. The share of hits here may be higher or lower than overall.

SMILES	CSC inhib	MT1-MMP act inh	MT1-MMP act inh RFP	eIF4H FP inh	Env fusion inh	Yeast UUG start	Rce1 inhib	PABP FP inh	others
Cc1oc2c(CN3CCCC3)c(O)ccc2c(=O)c1-c1ccc(Br)cc1	39	-4	4	-13	·	-9	+	-2
Cc1ccc(-n2c(=S)sc3c(=O)n(-c4ccc(F)cc4)c(SCC(=O)O)nc32)cc1C	·	4	-5	3	1	-39	i	4
CCC1CCCCN1CCCNC(=O)c1c(O)nc2c(C)cccn2c1=O (centres undefined)	-7	3	3	1	-4	-8	i	5
CCOC(=O)/C(C#N)=C/c1ccc(-c2ccsc2C(=O)OC)o1	-13	-17	2	4	-49	-30	i	?
CN(Cc1nc(Cc2cccc(F)c2)no1)CC1CCOCC1	-1	-3	-5	8	4	·	i	-2
CC(C)(CO)CNc1ccn2nccc2n1	·	-16	-5	·	38	-22	·	·
Cc1cc(C)n(C(=O)c2cccc([N+](=O)[O-])c2)n1	-10	-1	1	-5	1	-3	i	10
Clc1cccc(CSC2=NCCCN2)c1	9	·	·	0	·	·	i	9
CC(C)CC[n+]1ccn(C2=C([O-])c3ccccc3C(=O)/C2=N\S(=O)(=O)c2ccccc2)c1	17	-5	4	20	·	3	i	22
O=C1/C(=C/c2ccccc2)Oc2cc(OC(=O)N3CCOCC3)ccc21	0	5	3	1	·	-6	i	8
CCCSc1nc(=O)n2cccc(C)c2n1	·	0	1	0	-46	-15	i	0
O=C1ON=C(c2ccc(Cl)cc2)/C1=C/c1ccc(O)cc1	79*	·	·	-8	12	1	i	-7
COc1ccc(N2CCN(C(=O)c3ccc(C)c(Cl)c3)CC2)cc1	-9	-4	-3	1	12	-4	i	4
COc1ccc(N(C(=O)c2ccncc2)S(=O)(=O)c2ccc(OC)c(OC)c2)cc1	·	1	4	-4	-123	-4	i	-4
COc1ccc(C(=O)N2CC(c3ccc(Cl)cc3)CC2=O)cc1 (centres undefined)	-1	4	3	·	-36	-8	i	·
COc1cc(C(=O)Nc2cc(C)cc(C)c2)c(-n2cnnn2)cc1OC	-4	2	4	6	-7	·	·	3
O=C(/C=C/c1ccccc1)N1CCN(c2ccc([N+](=O)[O-])c(N3CCOCC3)c2)CC1	·	5	-2	2	-3	-8	i	2
COc1ccc(Nc2ncc(C(=O)N3CCN(c4ccccc4OC)CC3)c3ccccc23)cc1	-10	11	-1	-5	26	10	i	-3
Cc1cc(C(=O)O)c(CCCN)s1	0	3	2	-1	1	-9	i	2
COc1cc(C#N)ccc1OCC(=O)NCc1cccs1	-8	0	3	1.9*	-8	·	i	72	eIF4H FP inh retest=58*;PABP FP inh retest=46

Quoted at random: two entries already listed
SMILES	CSC inhib	MT1-MMP act inh	MT1-MMP act inh RFP	eIF4H FP inh	Env fusion inh	Yeast UUG start	Rce1 inhib	PABP FP inh	others
COc1cc(C#N)ccc1OCC(=O)NCc1cccs1	-8	0	3	1.9*	-8	·	i	72	eIF4H FP inh retest=58*;PABP FP inh retest=46
Cc1cc(C)n(C(=O)c2cccc([N+](=O)[O-])c2)n1	-10	-1	1	-5	1	-3	i	10

(next part)
SMILES	CSC inhib	MT1-MMP act inh	MT1-MMP act inh RFP	eIF4H FP inh	Env fusion inh	Yeast UUG start	Rce1 inhib	PABP FP inh	others
Cc1cc(SCC(=O)N2CCCC2=O)nc2ccccc12	5	-1	4	·	58*	·	·	·
CCc1ccccc1OCC(=O)Nc1nc(-c2cccnc2)cs1	40	6	-1	17	6	-25	i	-9
N#CC1=C(N)Oc2n[nH]c(-c3cccs3)c2C1C1CCCCC1 (centres undefined)	-12	0	-5	-1	·	-3	i	4
COc1ccc(S(=O)(=O)N(C)CC(=O)N2CCOCC2)cc1Cl	-8	4	-2	13	·	-14	i	4
O=C1[C@@H]2C(c3cccnc3)=NO[C@@H]2C(=O)N1c1ccc2ccccc2c1	18	-7	-3	-3	2	·	·	3
CCOc1ccccc1-n1c(SCC(=O)NCc2ccco2)nnc1-c1ccncc1	·	0	-2	10	-25	-18	i	17
CC(=O)c1c(C)oc2ccc(N(C(=O)C3CCCCC3)S(=O)(=O)c3cc([N+](=O)[O-])ccc3C)cc12	6	-7	-19	-5	8	·	i	1
O=C(C[n+]1ccccc1)N/N=C/c1c(F)cccc1Cl	-3	2	3	-2	8	-15	i	4
CC1Oc2ccccc2N(CC(=O)c2ccccc2)C1=O (centres undefined)	-11	-1	-2	1	·	-8	i	-2
COCc1cc(C(C)=O)ccc1OC	10	-3	2	8	·	-21	i	8
Cc1cc(C)n2nc(SCc3nc4ccccc4[nH]3)nc2n1	13	1	2	4	-11	-24	i	5
N#C/C(=C(/O)c1ccc([N+](=O)[O-])s1)c1nc2ccccc2[nH]1	48	-9	-33	0	?	-6	i	-5
C=CCSc1nnc(-c2cccc3ccccc23)o1	·	7	3	·	-5	-5	·	·
CCOC(=O)NNc1cc(C(F)(F)F)ccn1	3	-3	-1	12	15	-12	i	6
COc1cc(/C=N/n2c(-c3cc(C)[nH]n3)n[nH]c2=S)cc(OC)c1O	3	-5	-2	-6	-5	-12	i	-8
COc1cc(CO)c(Br)cc1OCC(N)=O	0	3	5	4	19	·	i	-3
O=C(CCc1ccccc1)Nc1cc2c3c(c1)CCC(=O)N3CCC2	3	1	2	·	-9	-6	i	·
COc1ccc(-n2c(Cc3cccn3C)nnc2SCC(=O)N2CCOCC2)cc1	3	3	4	0	-10	-19	i	-32
CCOC(=O)C1(CCOc2ccccc2)CCN(Cc2cccs2)CC1	20	-2	-1	-10	-3	·	i	6
Cc1ccccc1NC(=O)Cn1nc(C)c2ccccc2c1=O	-9	-2	-1	5	-5	-14	i	-6
COC(=O)Nc1nc2ccc(Br)cc2s1	-18	2	1	-2	-36	·	i	-1
COc1ccc(OC)c2c(C)cc(N3CCCN(C)CC3)nc12	-6	-2	-1	-5	-9	-5	i	-7
O=C(C1CCCN(Cc2nc(-c3ccc(Cl)cc3)no2)C1)N1CCOCC1 (centres undefined)	2	-1	-16	1	9	·	i	7
CC1Cc2ccccc2N1C(=O)CSCC(=O)O (centres undefined)	-6	5	6	1	·	-8	i	5
Cc1c([N+](=O)[O-])cc(C(=O)Nc2ccc3ncccc3c2)cc1[N+](=O)[O-]	-8	3	-3	25	1	-21	i	-4
CCOC(=O)c1ccc(NC(=S)NCCCN2CCCC2=O)cc1	-1	2	-12	-4	18	-26	i	4
COc1ccc(CC(=O)NNC2=Nc3cccc4cccc2c34)cc1OC	-2	-9	-7	-2	-4	·	i	-10
CC1(NC(=O)N2CCCCC2)CCS(=O)(=O)C1 (centres undefined)	·	0	2	-6	-66	-6	i	2
CC(C(=O)NC1CCCc2ccccc21)N1CCN(Cc2ccc3c(c2)OCO3)CC1 (centres undefined)	-4	3	4	0	-86	0	i	1
Cc1noc(C)c1S(=O)(=O)N(CC(=O)NCc1ccccc1)c1ccc(C(C)C)cc1	-7	-7	-7	-1	1	-9	i	11
COc1ccc(C(CNC(=O)C(C)Oc2ccc(Br)cc2)N2CCCC2)cc1 (centres undefined)	0	2	-2	·	15	1	i	·
CC(=O)N1CCN(c2ccc(NCc3ccc(F)cc3)cc2)CC1	-5	4	-3	-4	37	-27	i	9
O=C(OCc1cc2ccccc2[nH]c1=O)c1ccccn1	-1	1	-4	-2	·	-1	i	-2
CCOc1ccc(NC(=O)CN(C)C(=O)Cn2c(=O)oc3ccccc32)cc1OCC	-14	-2	-2	·	-1	-9	i	·
Cc1ccc(C(C)NC(=O)Cc2cccs2)c(C)c1 (centres undefined)	3	3	-3	-9	-34	-9	i	-1
NC(=O)c1c(/N=C/c2cccs2)sc2c1CCCC2	-2	-4	-5	-2	-14	-15	i	-11
O=C(N/N=C/c1ccncc1)NC12CC3CC(CC(C3)C1)C2	·	1	-4	7	11	3	i	-2
CCOC(=O)CNC(=O)N1CCC(CCC(=O)N(C)Cc2ccccc2)CC1	-2	-1	4	-2	0	3	i	4
CCOC(=O)c1c(NC(=O)CN2C(=O)NC3(CCC(CC)CC3)C2=O)sc(C)c1-c1ccc(C)cc1 (centres undefined)	2	-5	-3	-8	0	·	i	-18
Cc1nn(C)cc1CNC(=O)c1ccc(F)cc1	-15	9	10	-6	-9	·	i	65	eIF4H FP inh retest=-4;PABP FP inh retest=-1
COc1ccccc1-n1c(CNC(=O)c2ccco2)n[nH]c1=S	-13	-1	3	-2	2	-6	i	5

In the list so far, 16 contain a halogen.
SMILES	CSC inhib	MT1-MMP act inh	MT1-MMP act inh RFP	eIF4H FP inh	Env fusion inh	Yeast UUG start	Rce1 inhib	PABP FP inh	others
Cc1oc2c(CN3CCCC3)c(O)ccc2c(=O)c1-c1ccc(Br)cc1	39	-4	4	-13	·	-9	+	-2
Cc1ccc(-n2c(=S)sc3c(=O)n(-c4ccc(F)cc4)c(SCC(=O)O)nc32)cc1C	·	4	-5	3	1	-39	i	4
CN(Cc1nc(Cc2cccc(F)c2)no1)CC1CCOCC1	-1	-3	-5	8	4	·	i	-2
Clc1cccc(CSC2=NCCCN2)c1	9	·	·	0	·	·	i	9
O=C1ON=C(c2ccc(Cl)cc2)/C1=C/c1ccc(O)cc1	79*	·	·	-8	12	1	i	-7
COc1ccc(N2CCN(C(=O)c3ccc(C)c(Cl)c3)CC2)cc1	-9	-4	-3	1	12	-4	i	4
COc1ccc(C(=O)N2CC(c3ccc(Cl)cc3)CC2=O)cc1 (centres undefined)	-1	4	3	·	-36	-8	i	·
COc1ccc(S(=O)(=O)N(C)CC(=O)N2CCOCC2)cc1Cl	-8	4	-2	13	·	-14	i	4
O=C(C[n+]1ccccc1)N/N=C/c1c(F)cccc1Cl	-3	2	3	-2	8	-15	i	4
CCOC(=O)NNc1cc(C(F)(F)F)ccn1	3	-3	-1	12	15	-12	i	6
COc1cc(CO)c(Br)cc1OCC(N)=O	0	3	5	4	19	·	i	-3
COC(=O)Nc1nc2ccc(Br)cc2s1	-18	2	1	-2	-36	·	i	-1
O=C(C1CCCN(Cc2nc(-c3ccc(Cl)cc3)no2)C1)N1CCOCC1 (centres undefined)	2	-1	-16	1	9	·	i	7
COc1ccc(C(CNC(=O)C(C)Oc2ccc(Br)cc2)N2CCCC2)cc1 (centres undefined)	0	2	-2	·	15	1	i	·
CC(=O)N1CCN(c2ccc(NCc3ccc(F)cc3)cc2)CC1	-5	4	-3	-4	37	-27	i	9
Cc1nn(C)cc1CNC(=O)c1ccc(F)cc1	-15	9	10	-6	-9	·	i	65	eIF4H FP inh retest=-4;PABP FP inh retest=-1

Bioassay records: PubChem BioAssay, several laboratories
